Compound activity: PubChem, National Center for Advancing Translational Sciences (NCATS)
GLA inh pH 4.5 – inhibitors of human alpha-galactosidase A at pH 4.5; P06280; purified enzyme, 4-MU-alpha-Gal fluorescence, pH 4.5; activity change, negative = inhibition, % at 105 µM; 230,000 tested, under 10 active; inconclusive = small, poorly fitted or top-dose-only inhibition, or a rising curve; inactive = flat fitted curve, though single readings scatter; no compound was filed as active;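 also: 0% = full activity with enzyme and -100% = basal without enzyme; dose as in the result columns while the protocol names 77 µM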
Target sequence (P06280 whole entry, looked up): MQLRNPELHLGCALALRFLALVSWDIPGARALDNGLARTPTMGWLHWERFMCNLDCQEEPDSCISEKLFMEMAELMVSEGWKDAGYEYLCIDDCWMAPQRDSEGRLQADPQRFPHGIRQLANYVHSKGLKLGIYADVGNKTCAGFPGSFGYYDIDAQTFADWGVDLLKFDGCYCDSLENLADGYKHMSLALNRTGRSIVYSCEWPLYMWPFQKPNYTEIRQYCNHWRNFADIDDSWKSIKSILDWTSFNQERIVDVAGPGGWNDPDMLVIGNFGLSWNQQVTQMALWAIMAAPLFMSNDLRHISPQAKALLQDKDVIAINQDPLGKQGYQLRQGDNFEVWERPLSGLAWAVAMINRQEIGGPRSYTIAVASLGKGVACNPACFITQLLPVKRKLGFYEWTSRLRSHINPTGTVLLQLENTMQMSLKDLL
miR-21 reporter – raises the signal of a miR-21 reporter. 340,000 tested, under 10 active. HeLa miR-21 FLuc reporter, luciferase, 48 h. Potency, µM (titrated, usually from 38.3 µM), inactives show at the top dose reporter change, positive = more light; active = well fitted rising curve with a large enough effect; inconclusive = small, poorly fitted or top-dose-only effect; inactive = no such curve, though single readings can be large or run the other way;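 also: % of control where 0% means no effect; miR-21 action dims this reporter so a rising signal means less miR-21 action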
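HeLa miR-21-FLuc reporter line, endogenous miR-21; 2000 cells/well in DMEM/10% FBS; compound titration up to ~40uM final, 48 h, 37 degree Celsius; luciferase detection reagent, 15 min lysis, CCD luminescence.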
Rango dissoc inh – inhibitors of RanGTP-induced Rango-importin beta complex dissociation | Biochemical FRET Rango-importin beta, RanGTP-induced dissociation | 340,000 compounds, 0.071% hits | O95149+P62826 | Potency, µM (titrated, usually from 46.1 µM), for the others: at the top dose activity change, negative = inhibition; active means falling FRET ratio curve, often poorly fitted, with flat reads before Ran was added; inconclusive means other falling curves, or compound fluorescence or quenching; inactive means flat or rising ratio curve;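 also: potency is read from the fitted curve at half-maximal effect; % of control where 0% means no effect; nearly all actives have a fitted effect of over 45% in size; -100% = wells without RanGTP and RCC1; the record marks most hits as doubtful in a second field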
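Recombinant Rango FRET biosensor (EYFP–snurportin 1 IBB–cerulean CFP10) at 0.1 uM premixed with 0.25 uM importin beta in PBS, 1 mM DTT, 0.02% Tween-20, 0.1% BSA. Compound added 5 min; RanGTP-RCC1 (0.6 uM Ran, 2 mM GTP, 0.2 uM RCC1) then triggers release, read at 45 min.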
Rango-impB inh – prevents formation of the Rango-importin beta complex | Rango CFP/YFP FRET sensor + importin beta, 45 min | Potency, µM (highest dose often 92.2 µM), for inactives: at the top dose inhibition of complex formation | 340,000 compounds, 0.031% hits; active = rising FRET ratio curve, often small or poorly fitted; inconclusive = mostly compound fluorescence or quenching in the first reads; inactive = flat curves in all reads;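 also: potency is read from the fitted curve at half-maximal effect; 0% = DMSO wells and 100% = buffer wells lacking importin beta; nearly all actives have a fitted effect of over 15% in size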
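FRET biosensor (snurportin 1 IBB flanked by EYFP and cerulean), 50 nM, with compound 5 min, then 0.125 microM importin beta in PBS, 1 mM DTT, 0.02% Tween-20, 0.1% BSA. CFP/YFP ratio read after 45 min at room temperature; pre-read flags interference.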
* hit, by the source's call; ? = inconclusive; . = no result given.

SMILES	GLA inh pH 4.5	miR-21 reporter	Rango dissoc inh	Rango-impB inh
N#Cc1ccc(-c2csc(NNC(=O)c3ccc(Br)cc3)n2)cc1	-7.6	24.4%	-1.2%	?
Cc1cc(C(=O)COc2ccccc2Cl)c(C)n1-c1ccc2c(c1)OCO2	-4.5	-12.4%	1.9%	-1.8%
COc1ccc(N(C(=O)c2snc(C(N)=O)c2N)C(C(=O)NC2CCCC2)c2cc(OC)ccc2OC)cc1 (stereo unspecified)	.	7.8%	-1.9%	1.3%
Cc1ccc(S(=O)(=O)NN2C(=O)c3ccccc3NC2c2ccccc2F)cc1 (stereo unspecified)	.	-0.2%	9.7%	3.9%
CC(C)(C)NC(=O)c1c(F)c(F)c(F)c(F)c1F	0.8	-2.8%	-11.8%	1.2%
CCN(CC)c1ccc(C(=O)NNC(=O)CCl)cc1	-3.1	14.3%	10.5%	-0.8%
[O-]/C(=C(\C(=S)Nc1cccc2ccccc12)[n+]1ccccc1)c1ccc(OC(F)F)cc1	6.5	1.6%	-5.1%	-2.3%
CCCSc1nnc(NC(=O)Cc2ccc(OC)c(OC)c2)s1	-2.2	5.6%	3.6%	-0.3%
CN1CCC(N(C)C(=O)COc2ccccc2Cl)CC1	.	.	7.8%	-3.6%
Cc1nnc(N(Cc2ccco2)C(=O)c2ccc(C#N)cc2)s1	1.4	-3.5%	-2.5%	0.0%
Cc1ccc(CSc2nnc(-c3cnccn3)n2C)cc1	-2.4	-24.7%	7.7%	4.6%
COc1cc(NC(=O)c2cc3ccccc3o2)ccc1NC(=O)c1ccco1	.	0.6%	0.3%	-1.0%
COc1ccc(C2=NN(C(=O)CSc3nc(=O)n4cccc(C)c4n3)C(c3ccc(C)cc3)C2)cc1 (stereo unspecified)	.	.	0.3%	0.5%
COc1ccc(C(=O)N/N=C(/C)c2cccc(NC(=O)c3ccccc3F)c2)cc1	.	-28.0%	5.7%	-2.6%
Cc1ccc(N=c2c([N+](=O)[O-])nn(-c3ccc(Cl)cc3)n2O)cc1C	-1.6	-7.6%	2.3%	-1.3%
Cc1ccc(C(=O)Nc2nc(COc3ccccc3)cs2)s1	8.9	-0.2%	8.0%	1.9%
N#C/C(=C/c1cccnc1)c1ccccc1	.	-16.2%	-8.7%	0.2%
O=C(COc1c(Cl)cc(Cl)cc1Cl)c1ccc(Cl)cc1	1.9	-4.7%	7.9%	-4.2%
Cc1ccc(C(=O)N/N=C\c2ccc(OC(=O)c3cccs3)cc2)cn1	-10.4	-3.1%	-3.9%	0.0%
Cc1c(OCC(=O)OC(C)C)ccc2c3c(c(=O)oc12)CCC3	-2.2	-12.3%	-18.4%	0.2%
C/C(CC(=O)Nc1ccc(C)cc1C)=N\NC(=O)C(C)C	10.3	-12.1%	14.6%	3.5%
COC(=O)c1cc(NC(=O)Cc2ccc(OC)c(OC)c2)cc(C(=O)OC)c1	3.1	1.0%	-0.6%	0.1%
CC(=O)c1cccc(N(C(=O)CNC(=O)c2ccco2)C(C(=O)NCc2ccco2)c2ccccc2)c1 (stereo unspecified)	-3.6	-4.2%	6.6%	2.9%
CCOC(=O)c1ccccc1NC(=O)c1ccc(N(C)S(C)(=O)=O)cc1	-11.1	-5.3%	-3.3%	-0.7%
COc1ccccc1CNC(=O)COC(=O)COc1ccccc1Cc1ccccc1	.	.	-16.6%	-2.0%
CSc1nnc(C)c(=O)n1COC(=O)COc1ccccc1	-0.8	-0.1%	-15.1%	-5.6%
COc1ccc(-n2c(Cc3ccccc3)nnc2SCC(=O)N2CCCc3ccccc32)cc1	-11.3	-0.7%	0.9%	-0.7%
CC(=O)c1cccc(NC(=O)C(C)OC(=O)/C=C/c2cccs2)c1 (stereo unspecified)	.	.	-2.4%	4.2%
COc1ccc(OC)c(NC(=O)c2ccc(S(=O)(=O)N3CCN(C)CC3)cc2)c1	1.4	-1.8%	0.7%	-2.7%
CC1Oc2ccccc2N(CC(=O)Nc2ccc3c(c2)OCCO3)C1=O (stereo unspecified)	4.6	-21.5%	-3.0%	-1.0%
CCOc1ccc(Br)cc1C1C(C(=O)OC)=C(N)Oc2cc(N(C)C)ccc21 (stereo unspecified)	-11.0	25.7%	?	?
Cc1ccc(S(=O)(=O)NNC(=O)C(O)(c2ccccc2)c2ccccc2)cc1	0.1	-10.4%	1.4%	1.4%
O=C(N/N=C/c1cc(Br)ccc1O)Nc1ccccc1	2.2	9.3%	-7.5%	?
CCN(CC)C(=O)N1CCN(C(=O)c2ccc(C)cn2)CC1	6.6	-5.3%	9.3%	0.8%
CSc1ccccc1OCc1cc(C(=O)N(C)Cc2c(C)n[nH]c2C)no1	.	-20.6%	-3.9%	0.8%
CCOC(=O)c1ccccc1NC(=O)CSc1nc2c(sc(=S)n2CC)c(=O)[nH]1	.	.	-13.1%	0.3%

Single records, as listed above:
C/C(CC(=O)Nc1ccc(C)cc1C)=N\NC(=O)C(C)C reads GLA inh pH 4.5: 10.3; miR-21 reporter: -12.1%; Rango dissoc inh: 14.6%; Rango-impB inh: 3.5%
CCOC(=O)c1ccccc1NC(=O)c1ccc(N(C)S(C)(=O)=O)cc1 reads GLA inh pH 4.5: -11.1; miR-21 reporter: -5.3%; Rango dissoc inh: -3.3%; Rango-impB inh: -0.7%

2 records picked at random from the list so far, as already listed:
SMILES	GLA inh pH 4.5	miR-21 reporter	Rango dissoc inh	Rango-impB inh
CSc1ccccc1OCc1cc(C(=O)N(C)Cc2c(C)n[nH]c2C)no1	.	-20.6%	-3.9%	0.8%
CSc1nnc(C)c(=O)n1COC(=O)COc1ccccc1	-0.8	-0.1%	-15.1%	-5.6%

(cont.)
SMILES	GLA inh pH 4.5	miR-21 reporter	Rango dissoc inh	Rango-impB inh
COc1cccc(-n2c(=O)c3sccc3n(CC(=O)NC3CCCCC3)c2=O)c1	.	-0.5%	-13.1%	2.4%
O=C(CCS(=O)(=O)c1ccc2c(c1)NC(=O)CO2)NCCc1ccccc1	.	-2.9%	0.8%	8.4%
O=C(NCc1ccc(F)cc1)C(=O)NCC1OCCN1S(=O)(=O)c1ccc2c(c1)OCCO2 (stereo unspecified)	-7.1	2.9%	-13.3%	4.0%
Cc1sc2ncn(CC(=O)NCCN3CCOCC3)c(=O)c2c1S(=O)(=O)N1CCC(C)CC1	9.2	4.7%	19.3%	0.1%
Cc1ccc(C(=O)CCC(=O)Nc2ccc(Cl)c(S(=O)(=O)Nc3cccc(Cl)c3)c2)cc1	1.7	-2.0%	-0.2%	-3.2%
CCOCC(=O)Nc1ccc(-c2cn3cccnc3n2)cc1	?	-16.5%	13.4%	0.3%
O=[N+]([O-])c1ccccc1/C=N/n1c(COc2ccccc2)n[nH]c1=S	2.2	-18.9%	7.7%	-0.2%
O=C(CCSCc1cccc(F)c1)NCc1ccc(F)cc1	.	-4.1%	23.6%	5.0%
COc1ccc(CNC(=O)COC(=O)c2ccc(OCC3CCCO3)cc2)cc1 (stereo unspecified)	.	.	0.1%	1.1%
CCOc1ccc(/C=N/NS(=O)(=O)c2ccc(C)cc2)cc1OC	.	-6.8%	-13.8%	-0.1%
O=C(CCn1c(=O)sc2ccccc21)NCc1ccco1	-1.0	-5.9%	0.9%	-1.3%
CS(=O)(=O)N(CCc1ccccc1)CC(N)=O	5.5	-2.1%	-0.2%	-0.3%
COc1ccccc1C1NC(=O)NC(C)=C1C(=O)OC1CCCCC1 (stereo unspecified)	1.3	-0.1%	18.4%	-0.4%
Cc1ccc(S(=O)(=O)N(C)C)cc1NC(=O)C1CCCCC1	-2.0	-9.2%	-3.2%	1.0%
COc1ccc(S(=O)(=O)Nc2ccc(C(N)=O)cc2)cc1C(=O)N1CCCCCC1	.	0.4%	4.6%	-0.7%
COc1ccc(N(CC(=O)NCc2cccs2)S(=O)(=O)c2cccnc2)cc1	1.2	-4.8%	17.5%	1.5%
CCOC(=O)[C@H]1[C@H]2COc3cc(OC)ccc3[C@@H]2N2C(=O)CN(Cc3ccc(OC)cc3)C(=O)[C@@]12C	.	.	10.3%	-0.4%
CCCCOC(=O)Cn1c(=O)c2c(nc3n2CCCCN3c2ccc(C)cc2)n(C)c1=O	-6.8	-3.6%	9.9%	-1.0%
CCS(=O)(=O)N1CCN(c2ccc([N+](=O)[O-])c(NCc3cccnc3)c2)CC1	-5.6	-9.1%	0.4%	-0.1%
COc1ccc(CN2C(=O)CN=C2Nc2cc(C)ccc2C)cc1	-0.5	-7.9%	1.6%	0.9%
CC(=O)Nc1ccc(C(=O)OC2CCOC2=O)cc1 (stereo unspecified)	4.6	-5.3%	-6.9%	0.0%
Cc1cccc(NCC(=O)N/N=C\c2ccccn2)c1	-3.3	-4.7%	-18.1%	-3.7%
CCOc1ccccc1NC(=O)COC(=O)c1ccc(S(=O)(=O)N2CCCC2)cc1	.	.	-5.2%	-2.5%
CCOC(=O)c1c(CN2CCCCC2C)oc2ccc(OC)cc12 (stereo unspecified)	-13.5	0.1%	-16.3%	-0.9%
COc1cc(NC(=O)Cc2ccc([N+](=O)[O-])cc2)c(C(=O)O)cc1OC	-4.2	-10.9%	-1.0%	-2.3%
CCc1nc2ccccc2n1CCc1ccccc1	3.7	2.3%	-4.3%	7.3%
CCc1cc2c(=O)c(-c3nc4ccccc4n3C)coc2c(CN2CCCCC2C)c1O (stereo unspecified)	.	2.4%	-25.0%	-1.7%
Cc1ccc(NC(=S)NC(=O)C2CC2)cc1Cl	.	-30.8%	-2.5%	0.1%
CC(C)CNC(=O)c1ccccc1SCC(=O)NC12CC3CC(CC(C3)C1)C2	-2.6	0.7%	6.9%	4.4%
CCc1c(C)sc(NC(=O)OC)c1C(=O)N1CCCCC1	6.3	-3.9%	-9.9%	2.9%
Cc1ccc(N(CCC#N)C(=O)CN2C(=O)NC(Cc3ccccc3)C2=O)cc1 (stereo unspecified)	5.6	-1.7%	-0.7%	-0.7%
Cc1nnc(NC(=O)CCS(=O)(=O)c2ccccc2)s1	.	4.7%	-0.2%	-2.3%
COc1cccc(NCCC(=O)c2cccc([N+](=O)[O-])c2)c1	8.1	-65.9%	-5.9%	?
Cc1cc(C)cc(-n2c(=O)c3ccccc3n(CC(=O)NCC3CCCO3)c2=O)c1 (stereo unspecified)	.	-0.3%	-2.0%	6.7%
Cc1ccc(C(=O)NNC(=S)NC(=O)c2ccc(Cl)cc2)cc1	-2.5	-7.3%	-21.4%	1.6%
CC#CCN1c2ccccc2[C@]23C[C@@H](C(=O)OC)N(C(=O)c4ccc(Br)cc4)C2=NC(C(=O)OC)=C(C(=O)OC)[C@H]13	3.0	.	-22.8%	-2.2%
Cc1ccnc(N2C(=O)OC(C)(C)C2(C)O)c1 (stereo unspecified)	-2.3	-6.5%	1.1%	-4.3%
Fc1ccc(NC(=S)Nc2cccc3ccccc23)cc1F	.	-11.3%	-6.5%	-1.6%
C=CCn1c(=O)c2c3c(sc2n2c(Nc4ccc(OC)cc4)nnc12)CCCC3	-6.0	1.9%	-0.8%	-0.5%
N#C/C(=C\c1ccc(N2CCOCC2)o1)C(=O)NC1CCCCC1	-17.2	-56.4%	?	?
CCCCS(=O)(=O)N1CCC(C(=O)NCC2CCCO2)CC1 (stereo unspecified)	.	5.9%	1.3%	-0.4%
CCOC(=O)/C(N=Nc1ccc(C(=O)O)cc1[N+](=O)[O-])=C(\C)O	-9.6	0.4%	0.1%	3.7%
O=C(OCC(=O)N1CCC(Cc2ccccc2)CC1)c1ccccc1F	.	.	0.4%	1.8%
COCCn1c(N)c(N(Cc2ccccc2)C(=O)c2ccc3ccccc3c2)c(=O)[nH]c1=O	-0.2	-1.1%	7.7%	-0.2%
O=C1CCCC(=O)C1=C1SCCS1	-0.1	-1.0%	-2.7%	-0.5%
O=C(c1cc([N+](=O)[O-])ccc1N1CCOCC1)N1CCN(S(=O)(=O)c2ccc(F)cc2)CC1	.	.	-3.4%	1.4%
O=C(C[n+]1cc(Br)cc2ccccc21)c1ccc(Cl)cc1	.	-4.5%	-15.6%	7.2%
O=C(Nc1ccc(-c2csc(Nc3ccccc3)n2)cc1)c1ccccc1	.	2.5%	2.0%	-2.7%

An excerpt, so the mix of outcomes need not match the whole.
